VACV Venus inh – inhibitors of vaccinia virus (Venus reporter) | Vaccinia virus Venus reporter expression, fluorescence | Potency, µM (titrated, usually from 36.5 µM), for inactives: at the highest dose activity change, negative = inhibition, hits mostly inhibitors | hit rate 0.46% among 330,000; active means well fitted inhibition curve with a large enough effect; inconclusive means small, poorly fitted or top-dose-only effect; inactive means no such curve, though single readings can be large or run the other way; tested in A549 cells; further: nearly all actives have a fitted effect of over 30% in size; inactives centre near -10
VACV mCherry inh – vaccinia inhibition (mCherry reporter); Vaccinia virus mCherry reporter infection, fluorescence; about a quarter of the inactives have no number; hit rate 0.63% among 310,000; AID 720579; Potency, µM (top dose mostly 36.5 µM), for inactives: top-dose activity change, negative = inhibition, actives largely listed as inhibitors; active = well fitted inhibition curve with a large enough effect; inconclusive = small, poorly fitted or top-dose-only effect; inactive = no such curve, though single readings can be large or run the other way; tested in A549 cells; further: nearly all actives have a fitted effect of over 35% in size; inactives centre near -10
* hit, by the source's call; i = inactive; ? = inconclusive; . = not tested or not shown; [ ] = dose if it differs, or a comment. On the % scale 0 is the no-effect control and ±100 the full control effect; potency means the concentration at half of the fitted maximal effect.

SMILES	VACV Venus inh	VACV mCherry inh
CCCOc1ccc(C2C(=O)N(C3CCCCC3)CC(=O)N2CCC2=CCCCC2)cc1OC (centres undefined)	-1.8%	3.5%
Nn1cc(-c2ccccc2)nc1SCC(=O)Nc1ccc2c(c1)OCO2	-13.5%	-22.8%
CC(C)c1ccc(NC(=O)C(c2ccccc2)N(C)C(=O)CCc2c[nH]c3ccccc23)cc1 (centres undefined)	-9.7%	i
Clc1ccc(Cl)cc1	-4.6%	-11.4%
CCc1ccc(C2NC(=S)NC3=C2C(=O)CC(C)(C)C3)cc1 (centres undefined)	-24.6%	-20.3%
CCCCC(=O)Nc1ccc2oc(-c3ccncc3)nc2c1	-14.2%	-0.8%
CCC(=O)Nc1ccc2c(c1)N(C(C)=O)c1ccccc1CC2	-17.0%	-16.9%
Cn1ncc2c(NCc3ccccc3)ncnc21	-16.4%	-15.3%
O=C(Cc1ccc(NC(=O)N2CCCCc3ccccc32)cc1)NCc1ccccc1	-17.0%	-16.6%
O=C(CNC(=O)OCc1ccccc1)Nc1ccc(Br)cc1C(=O)c1ccccc1	-26.7%	-28.7%
O=C1Cc2ccccc2C(c2ccc(Br)cc2)N1 (centres undefined)	-15.4%	i
COc1cccc(CN(C)C(=O)c2cc(S(=O)(=O)NCc3ccccc3)ccc2C)c1OC	-19.1%	-7.9%
COc1ccc2c(c1)[nH]c1c(=O)n(CCN(C)C)cnc12	-12.0%	-16.1%
CCOC(=O)[C@@H]1CSCCS(=O)(=O)N1	-10.0%	i
COc1ccccc1CNC(=O)CCCCn1c(=O)c2ccccc2n(Cc2c(C)cc(C)cc2C)c1=O	-1.4%	3.4%
CC(=O)Nc1ccc(OCC(=O)N2CCc3ccccc3C2)cc1	-0.4%	i
Cc1cc(F)ccc1NC(=O)CN(C)S(=O)(=O)c1ccc(C(=O)N2CCOCC2)s1	-7.2%	-4.2%
COc1cc(/C=N/NC(=O)CCc2n[nH]c(=O)[nH]c2=O)ccc1O	8.4%	i
CS(=O)(=O)N(CC(=O)NCc1ccc2c(c1)OCO2)C1CCCCC1	4.6%	i
O=C(Nc1ccc(Br)cc1)C1CCN(C(=O)c2ccc(F)cc2)CC1	-9.6%	-27.1%
O=S(=O)(NC1CC1)c1ccc(S(=O)(=O)N2CCCC3(CCCCC3)C2)cc1	0.5%	-13.0%
COc1ccc(C2=C(Nc3ccc(F)cc3)c3ccccc3C2=O)cc1	-15.1%	.
CC(C)[C@@H](NC(=O)C1CCC(CNC(=O)[C@H](Cc2ccccc2)NC(=O)OC(C)(C)C)CC1)C(=O)O (some centres undefined)	-20.8%	-3.7%
Cc1ccc(-c2cn3cccnc3n2)cc1NC(=O)Nc1ccc(F)cc1	0.5%	-2.1%
COc1cccc(NC(=O)CSCc2cc(=O)c3ccc(C)c(C)c3[nH]2)c1	-8.0%	2.1%
O=C(NCC1(N2CCOCC2)CCCC1)c1cnn(-c2ncc3c(n2)-c2ccccc2CC3)c1C1CC1	-14.6%	-19.5%
COc1ccccc1Nc1cc(C)nc2nc(-c3ccccc3)nn12	-17.0%	-14.1%
CC(C)(C)C1CCc2c(sc(NC(=O)c3ccccc3F)c2C(=O)NCc2ccco2)C1 (centres undefined)	-21.7%	-4.1%
Cc1ccc([N+](=O)[O-])cc1N(CC(=O)N1CCCCC1)S(C)(=O)=O	0.0%	-2.9%
CC(=O)Nc1ccc(C(=O)Nc2ccc(S(=O)(=O)N3CCCC3)cc2)cc1	-10.0%	-2.7%[1.46 µM]
Cc1ccc(NC(=O)Nc2nc3ccccc3s2)cc1NC(=O)Nc1nc2ccccc2s1	?	-23.5%
COc1ccc(CC(NC(=O)c2ccccc2)C(=O)NCC(=O)O)cc1 (centres undefined)	-9.2%	5.1%
CCN(CC)/[N+]([O-])=N/O	?	-9.3%
O=C(Nc1ccccc1-c1ccccc1)c1ccc(NC(=O)c2ccco2)cc1	-16.5%	-20.5%
CCOc1ccccc1-n1c(=S)sc2c(=O)n(-c3ccc(C)cc3)c(=S)[nH]c21	-21.2%	-1.0%
COc1ccc(Br)c(C=O)c1OS(=O)(=O)c1ccc(C)cc1	-17.7%	-6.2%
CCOc1ccccc1/C=C/c1onc(C)c1S(=O)(=O)N1CCC(C(=O)N(CC)CC)CC1	-25.3%	-7.3%
Cc1ccc(NC(=O)Cn2nc(C)c([N+](=O)[O-])c2C)cc1Cl	-10.8%	-24.1%
CCOc1ccc(OCCC(=O)OCC(=O)Nc2ccc3c(c2)OCO3)cc1	2.5%	-4.9%
COc1ccc(OC)c(NC(=O)c2cn3c4c(ccc(Cl)c4c2=O)OC(C)C3)c1 (centres undefined)	20.9%	21.4%
O=[N+]([O-])c1cnccc1Nc1ccc(F)cc1	5.6%	1.3%
CC1CCC2(CC1)NC(=O)N(CC(=O)N1CCc3ccccc3C1)C2=O (centres undefined)	-12.4%	-13.2%
Cc1ccc(CNC(=O)Cn2ccn(-c3ccc(F)c(F)c3)c(=O)c2=O)cc1	-8.1%	-6.1%
Cc1ccccc1CNC(=O)C1CCC(=O)N(Cc2cccc(F)c2)C1 (centres undefined)	-14.7%	-9.9%
C=CCn1c(SCC(=O)c2cc(C)n(CCOC)c2C)nc2sc(C)c(C)c2c1=O	3.7%	.

Fetched by structure from the entries so far:
SMILES	VACV Venus inh	VACV mCherry inh
CC1CCC2(CC1)NC(=O)N(CC(=O)N1CCc3ccccc3C1)C2=O (centres undefined)	-12.4%	-13.2%
O=C(Nc1ccccc1-c1ccccc1)c1ccc(NC(=O)c2ccco2)cc1	-16.5%	-20.5%

Going on with the list:
SMILES	VACV Venus inh	VACV mCherry inh
CC(C)(C)C1CCc2c(sc(NC(=O)c3ccco3)c2C(=O)Nc2ccccc2Cl)C1 (centres undefined)	5.1%	-14.6%
CCCN(CCC)C(=O)c1nn(C)c2c1CSc1ccc(C)cc1-2	3.1%	-13.2%
CC(C)OC(=O)/C(C#N)=C/c1c[nH]c2ccccc12	-13.5%	-28.1%
CC(=O)N1CCc2cc(S(=O)(=O)NCCCN3CCC(C)CC3)ccc21	-15.8%	-0.6%
CCOc1ccc(N2C(=O)C3CCCN3C2=O)cc1 (centres undefined)	-21.8%	?
O=C(NCCC(=O)N1CCCCC1)c1ccccc1Cl	-2.5%	-16.2%
Cc1noc(Cn2c(=O)c3cc4c(cc3n(CC(=O)Nc3ccccc3F)c2=O)OCO4)n1	-0.9%	4.9%
O=C1CCCCC1Nc1ccc([N+](=O)[O-])cc1 (centres undefined)	-12.6%	-11.8%
O=C(O)c1ccc2c(c1)N(Cc1ccc(F)cc1Cl)C(=O)c1ccccc1S2	-8.8%	i
Oc1ccccc1/C=N/NC(=S)NC1CC2CC1C1C=CCC21 (centres undefined)	?	?
CCN(CC)C(=O)c1cccc(NC(=O)CC23CC4CC(CC(C4)C2)C3)c1	-16.5%	-9.1%
O=C(C[C@@H]1C/C=C/CC[C@H](Cc2ccc(F)cc2)C(=O)O[C@H](c2ccccc2)CNC1=O)NCCO	-17.3%	i
COC(=O)c1cc2oc3ccccc3c2n1CC(=O)Nc1ccc(C)cc1C	-1.7%	-11.9%
CCOc1ccc(C(=O)Nc2cccc([N+](=O)[O-])c2)cc1Br	?	-8.4%
CCOc1ccc(CNn2nnnc2N)cc1	-7.7%	-1.8%
CCc1nnc(NC(=O)CCC(=O)NCc2ccc(C)cc2)s1	-16.1%	i
CCC(C)NC(=O)C1CCCN(S(=O)(=O)c2ccc(-n3cnnn3)cc2)C1 (centres undefined)	-10.9%	-17.8%
CCCS(=O)(=O)NC(=O)C1(C)CCN(C(=O)c2cc(C)n(C(C)(C)C)n2)C1 (centres undefined)	-7.9%	4.8%
O=C(CSCc1ccc(Cl)cc1)N/N=C/c1ccco1	-5.4%	-4.2%
COc1cc(CN2CCC3(CC2)c2ccccc2[C@@H](NC(=O)c2ccccc2OC)[C@@H]3O)ccc1F	-23.8%	-23.0%
CCn1c(Cn2nnc(-c3ccccc3)n2)nnc1SCC(=O)Nc1ccc(C(C)=O)cc1	-4.5%	-8.8%
COc1cccc(S(=O)(=O)Nc2ccc3c(c2)C(=O)N(C)C[C@H](OC)[C@H](C)CN[C@@H](C)CO3)c1	-8.9%	-3.5%
CN(C)c1ccc(CNS(=O)(=O)c2ccc3c(c2)C(C)(C)C(=O)N3C)cc1	-11.2%	i
NC(=O)C[C@H](N)c1cn([C@@H](CC(N)=O)C(=O)N2CCNCC2)nn1	-2.8%	i
COc1ccc2o/c(=N/NC(=O)c3cccs3)c(C(N)=O)cc2c1	?	?
CCCCNC(=O)Nc1ccc(C2SCCS2)cc1	-6.4%	-11.6%
Cc1c(Cl)cccc1NC(=S)N1CCCN(Cc2ccc(F)cc2)C1	-12.9%	-18.8%
c1ccc(Cn2c(Cn3c(-c4cnccn4)nc4ccccc43)nc3ccccc32)cc1	0.5%	11.9%
CN(C)CCNc1oc(COc2ccc(-c3ccccc3)cc2)nc1C#N	-25.4%	-18.4%
O=C(Nc1ccc(F)cc1F)c1cc2ccc3cccnc3c2[nH]1	-13.2%	-11.3%
O=C(O)C1C2CCC(O2)C1C(=O)Nc1ccc(O)cc1 (centres undefined)	-7.5%	-11.6%
O=C(NCCO)/C(=C/c1ccco1)NC(=O)c1ccco1	-15.1%	-14.8%
CN1/C(=C\C(=O)c2cccnc2)C(C)(C)c2ccccc21	-16.7%	-4.2%
CCCn1nc(C(=O)Nc2nnc(CC)s2)c2ccccc2c1=O	-6.7%	-10.3%
O=C1CCCN1c1ccc(S(=O)(=O)Oc2ccc(Cl)cc2)cc1[N+](=O)[O-]	-27.9%	.
NC(=O)c1cccc(-c2ccnc3c2CC(C(=O)Nc2ccccc2)O3)c1 (centres undefined)	0.6%	-11.4%
CC1(C(=O)NCc2ccccc2Br)CCN1Cc1ccc2ccccc2c1 (centres undefined)	-17.8%	?
Cc1ccccc1C(=O)N1CCc2c([nH]c3ccccc23)C1C(F)(F)F (centres undefined)	-7.8%	-18.3%
CCn1c(=N)n(CC(O)COc2ccccc2)c2ccccc21 (centres undefined)	-15.1%	-21.1%
CC(C)OCCCN1CN(S(=O)(=O)c2ccccc2)c2nc3ccccc3nc21	4.3%	.
CC(=O)c1sc2nc(CSc3nnnn3-c3ccccc3)[nH]c(=O)c2c1C	13.4%	i
CCN(Cc1nc(-c2ccccc2)no1)C(=O)c1ccco1	-4.0%	-11.0%
COC(=O)[C@]12CCCCC=C1N(CCc1ccc(OC)c(OC)c1)C(=O)[C@H](CC(=O)NCCCN1CCCC1=O)C2	-3.8%	-6.3%
CN(CCOc1ccccc1)C(=O)c1ccc(F)c(S(=O)(=O)N2CCOCC2)c1	-9.9%	-11.4%
CC(C)c1ccc(NC(=O)C2CSC3(C)CCC(=O)N23)cc1 (centres undefined)	-13.1%	-8.9%
Cc1cc(C)c(NC(=O)CSc2nnc(-c3ccncc3)n2Cc2ccco2)c(C)c1	-9.3%	-14.6%
O=C1NC(=S)S/C1=C\c1cccc([N+](=O)[O-])c1	-0.6%	-19.0%
CO[C@H]1[C@H](NC(=O)c2ccsc2)c2ccccc2C12CCN(Cc1cccn1-c1ccccn1)CC2	1.5%	-7.1%
CC1CCCCN1c1nc(-c2ccc(C(C)(C)C)cc2)nc2ccccc12 (centres undefined)	-1.5%	-11.1%
Cc1ccc2c(c1)cc1c(=O)n(CC(=O)N3CCCCC3)nc(C)n12	-11.8%	-19.5%
COc1ccc(C2c3c(oc4cc(C)cc(C)c4c3=O)C(=O)N2Cc2ccco2)cc1OC (centres undefined)	35.0%[activator]	25.7%
CC1=CCC(COC(=O)Nc2ccccc2)CC1 (centres undefined)	-25.3%	.
C/C(=N/NC(=O)c1ccc(Br)o1)c1ccncc1	-15.0%	-26.5%
O=C(O)C(Cc1ccccc1)n1c(=S)[nH]c2ccccc2c1=O (centres undefined)	-13.5%	-5.0%
CCOC(=O)N1CCN(C(C)C(=O)c2c[nH]c3ccccc23)CC1 (centres undefined)	-14.1%	-12.7%
C[C@H]1CN([C@@H](C)CO)S(=O)(=O)c2ccc(-c3cncnc3)cc2O[C@H]1CN(C)C(=O)NC1CCCC1	-4.0%	-15.6%
CC(=O)Nc1ccc(S(=O)(=O)NNC(=O)c2cccc(Cl)c2)cc1	-17.7%	i
S=C(NC1CCCCC1)N1CCOCC1	-0.6%[7.34 µM]	i[7.34 µM]
CCOc1cc2c(cc1OCC)-n1cccc1C(c1c(O)cccc1OC)NC2 (centres undefined)	-3.2%	i
Cn1c2ccccc2n2c(=O)c(=O)n(CC(=O)c3ccc(Cl)cc3)nc12	-0.6%	-10.7%

(cont.)
SMILES	VACV Venus inh	VACV mCherry inh
CCC(=O)N1c2ccc(S(=O)(=O)CCC(=O)NCc3ccc4c(c3)OCO4)cc2CC1C (centres undefined)	-3.4%	-16.6%
COc1ccc(NC(=O)CN2C(=O)NC3(CCCCCC3)C2=O)cc1Cl	-17.3%	-0.3%
NC(=O)Cn1nc([N+](=O)[O-])nc1Oc1ccc(Br)cc1	-7.2%	-1.2%
CCOC(=O)C1=C(C)N(c2ccc(OCC)cc2)C(=O)/C1=C\c1ccco1	-8.9%	-54.1%

High-throughput results as filed in PubChem BioAssay.
